PABP polyA inh: PABP-poly(A) binding inhibition; 1% of 290,000 active; PABP-poly(A) RNA binding, fluorescence polarization; AID 2014; inhibition, % at 35 µM; P11940;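 active = 50% or more with normal probe brightness, or confirmed in later tests; about a fifth of its hits are not listed in these tables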;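 note: calls also rest on retests at 20 µM and on dose response follow-up; controls were probe without protein and protein plus probe with vehicle; some compounds called inactive have numbers as strong as hits; many hits fall short of the cut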
Target sequence (P11940 whole entry, looked up): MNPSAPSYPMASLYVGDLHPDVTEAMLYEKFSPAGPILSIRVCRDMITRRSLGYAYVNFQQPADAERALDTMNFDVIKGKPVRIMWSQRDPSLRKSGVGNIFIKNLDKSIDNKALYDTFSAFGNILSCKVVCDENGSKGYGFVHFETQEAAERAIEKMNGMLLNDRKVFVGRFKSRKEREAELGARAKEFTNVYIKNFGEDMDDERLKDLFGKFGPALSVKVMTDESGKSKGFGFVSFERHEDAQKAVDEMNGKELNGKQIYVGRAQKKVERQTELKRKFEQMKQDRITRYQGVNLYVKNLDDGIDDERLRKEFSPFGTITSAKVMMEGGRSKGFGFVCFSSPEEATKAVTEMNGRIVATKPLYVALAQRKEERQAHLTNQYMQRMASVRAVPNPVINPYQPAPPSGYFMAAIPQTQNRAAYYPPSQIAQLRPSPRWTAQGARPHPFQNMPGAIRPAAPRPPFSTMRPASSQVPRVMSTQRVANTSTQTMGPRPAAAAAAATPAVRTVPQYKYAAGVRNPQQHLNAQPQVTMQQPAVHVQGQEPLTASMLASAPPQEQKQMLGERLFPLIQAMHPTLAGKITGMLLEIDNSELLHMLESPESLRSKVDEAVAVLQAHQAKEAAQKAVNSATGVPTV
CSC inhib: cancer stem cell inhibition; cancer stem cell-like cells viability, luminescence; inhibition, % at 7.5 µM; 1.1% of 300,000 active;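 active = mean at 75% or more and at least half the replicates too; tested in HMLE shEcad cells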;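 note: 0% = median of negative and 100% = median of positive control wells; the first replicate is given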
MT1-MMP act inh: MT1-MMP (human) activation inhibition | P50281 | HT1080 RFP-PRO-GFP cells, GFP/RFP ratio fluorescence, overnight; percent of plate control window, DMSO zero | GFP/RFP ratio change, % at 20 µM | 0.061% of 360,000 active | AID 651647;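 active = GFP/RFP ratio change of at least 30% with cell ATP level not reduced by more than half and red fluorescence within 50% of control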; note: strong numbers were not always called active
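Assay system: HT1080 cells carrying an RFP-PRO-GFP reporter | Dosing: Single dose of 20 µM compound, 1% DMSO final | Incubation: Cells overnight before dosing, compound overnight, 37 °C, 5% CO2 | Evaluation: GFP/RFP fluorescence ratio | Control set: DMSO and RFP-L50D-GFP cell wells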
eIF4H FP inh: inhibitors of RNA binding by human eIF4H. Q15056. eIF4H fluorescence polarization binding assay. inhibition, % at 35 µM. 0.94% of 290,000 active. AID 2012;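 active = 50% or more with normal probe brightness, or confirmed in later tests; about a fifth of its hits are not listed in these tables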;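 note: calls also rest on retests at 20 µM and on dose response follow-up; 0% = protein and probe with vehicle and 100% = probe without protein; strong numbers were not always called active; many hits fall short of the cut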
Yeast UUG start: modulators of start codon recognition fidelity in yeast; S. cerevisiae UUG-firefly luciferase reporter, luminescence/redox ratio; activity score, % at 18.7 µM; 0.13% of 350,000 active;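 active = replicate mean at a twofold rise or more, about +100% in these data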;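 note: firefly luciferase made from a UUG start codon reports start codon fidelity; reporter light over untreated wells divided by growth signal over untreated wells; some hits fall short of that in this replicate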
HIV Env fusion: blocks HIV Env-driven cell-cell fusion. 1.1% of 360,000 active. AID 651610. HeLa-JRFL Env/CEM21 cell fusion, luciferase. inhibition, % at 12.3 µM;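 active = mean replicate inhibition score of at least 50 and every replicate individually at or above 50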;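 note: 0% = plate neutral controls and 100% = maraviroc near 300 nM; one replicate is shown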
Rce1 inh: blocks yeast Ras-converting enzyme | Q03530 | yeast membranes, quenched prenylated peptide cleavage fluorescence | calls only | 0.27% of 290,000 active | AID 2563;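 active = fall in fluorescence gain of 50% or more versus controls, with final raw signal at or below 3038400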;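 note: plate controls were neutral control wells for no effect and wells lacking membranes for full effect; tested at 10 µM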
eIF4H FP inh retest: second read-out of eIF4H FP inh, no call of its own (marks repeat the call); inhibition, %; compound at 20 µM; confirmation average;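 mean of two retest wells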
PABP polyA inh retest: further read-out of PABP polyA inh, marked with its call; inhibition, %; compound at 20 µM; confirmation repeats;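 mean of two retest wells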
MT1-MMP act inh RFP: further read-out of MT1-MMP act inh, marked with its call; RFP signal change, %; measured here: RFP expression control read;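 0 = vehicle wells; hits needed this value within 50% of zero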
An asterisk follows results filed as active; i = inactive; . = not tested or not shown. The list is partial (hit frequency here may not be typical).

SMILES	PABP polyA inh	CSC inhib	MT1-MMP act inh	MT1-MMP act inh RFP	eIF4H FP inh	Yeast UUG start	HIV Env fusion	Rce1 inh	others
C/C(=N\O)c1ccc(N2C(=O)C3CC=C(Cl)CC3C2=O)cc1 (configuration not stated)	4	-6	10	-1	6	-37	-87	i
CC1(C)CC(=O)C(C(C2=C(O)CC(C)(C)CC2=O)c2cccs2)C(=O)C1 (configuration not stated)	14	1	1	2	-7	11	.	i
Cc1cnc(C(=O)OCC(=O)Nc2sc3c(c2C(N)=O)CCCC3)cn1	.	.	0	3	.	-8	-3	.
O=C(CNCc1ccco1)Nc1ccc(N2CCCCCC2)cc1	5	-8	2	3	-2	.	5	i
CCCCn1c(-c2ccc(Cl)cc2)nc2c(=O)n(C)c(=O)[nH]c21	9	.	2	2	8	-16	.	.
CC(=O)N(C(C)=O)c1nc(-c2ccccc2)cn1/N=C/c1cccc([N+](=O)[O-])c1	14	-6	1	1	-6	.	20	i
CC(C)c1ccc(/C=C/c2ccc(=O)n(C)n2)cc1	-14	0	14	-3	0	.	-121	i
COc1ccc(S(=O)(=O)N2CCC(O)(c3ccc(Cl)cc3)CC2)cc1	-6	4	3	-4	7	0	0	i
CNC(=O)c1cnn(-c2nc(-c3ccc(OC)cc3)cs2)c1C(F)(F)F	-7	20	1	-9	-1	-15	3	i
CCCCOc1ccc(NC(=O)Nc2nnc(C)s2)cc1	2	26	5	3	3	-12	1	i
O=C(Cn1nc(-c2cccc([N+](=O)[O-])c2)c2ccccc2c1=O)Nc1cccnc1	-1	-7	4	5	-8	-7	-15	i
CC(C)n1cc(/C=N/Nc2ccc(Cl)c(C(=O)O)c2)c2ccccc21	16	.	-1	1	96	-6	.	i	eIF4H FP inh retest=7;PABP polyA inh retest=30
Cc1ccccc1C(=O)OC1OC(=O)C(Cl)=C1N1CCOCC1 (configuration not stated)	15	1	-1	0	10	-1	15	i
O=C1Nc2ccccc2C(O)(C(=O)NCc2ccc3c(c2)OCO3)N1c1ccc(Cl)c(Cl)c1 (configuration not stated)	-9	-15	-2	1	1	-6	-46	i
COc1ccc(CCNC(=O)/C=C/c2ccc3ccccc3n2)cc1OC	-2	64	-6	-4	5	-6	-16	i
O=C(CCCOc1ccccc1)N1CCN(C(=O)c2ccco2)CC1	-10	-4	10	1	-6	-16	-6	i
C/C(N)=C(/C#N)C(=O)CN1CCCCC1	7	-10	0	-3	1	-8	.	i
Cc1ccc(CS(=O)(=O)CCC(=O)NC2CC2)cc1	-7	22	1	4	-12	-17	12	i
CCc1ccc(-c2nc(CS(=O)CC(=O)NCc3ccccc3)c(C)o2)cc1 (configuration not stated)	7	-21	-2	4	10	-1	3	i
COc1ccc(CNC(=O)C2CCCN(Cc3nc(-c4cccc(C)c4)oc3C)C2)cc1 (configuration not stated)	7	-5	1	-11	1	.	37	i
O=C(COC(=O)c1ccc(O)cc1O)c1ccc(Cl)cc1	.	-7	-6	-2	.	.	.	i
C=CCN(CC=C)CCCOc1ccc(Br)cc1Cl	1	.	3	6	8	.	-9	i
CCCSc1nc2c(c(=O)n(C)c(=O)n2C)n1Cc1ccc(C)cc1	-6	7	-2	-11	6	.	.	i
CSc1nc2nc3c(cc2c(=O)n1-c1ccc(C)cc1)COC(C)(C)C3	-17	-8	-3	-2	12	-17	17	i
Cc1cccc(NC(=O)C2CC(O)CN2C(=O)OCc2ccccc2)c1 (configuration not stated)	-9	-17	2	2	-8	.	.	i
COc1ccc(C2=NS(=O)(=O)N(C)C(C(=O)N3CCCCC3)=C2)cc1OC	4	-12	-7	-3	-10	11	.	i
CC(=O)C1=C(O)C(=O)N(c2cc(C(C)(C)C)on2)C1c1ccc(C(C)C)cc1 (configuration not stated)	33	-5	4	5	-2	-17	.	i
O=C(NCC(c1cccs1)N1CCOCC1)c1cn(-c2ccccc2)nc1-c1ccc(Cl)cc1 (configuration not stated)	.	20	-4	-7	.	-6	12	i
CCOC(=O)CN1N=C(/C=C/c2ccc(OCC)cc2)CCC1=O	7	-8	-2	2	-9	.	9	i
CC1C(=O)N2CCCc3cc(NC(=O)c4ccccc4C(F)(F)F)cc1c32 (configuration not stated)	.	3	4	6	.	5	-35	i

Next section (3 carried over from the part before).
SMILES	PABP polyA inh	CSC inhib	MT1-MMP act inh	MT1-MMP act inh RFP	eIF4H FP inh	Yeast UUG start	HIV Env fusion	Rce1 inh	others
O=C(NCC(c1cccs1)N1CCOCC1)c1cn(-c2ccccc2)nc1-c1ccc(Cl)cc1 (configuration not stated)	.	20	-4	-7	.	-6	12	i
CCOC(=O)CN1N=C(/C=C/c2ccc(OCC)cc2)CCC1=O	7	-8	-2	2	-9	.	9	i
CC1C(=O)N2CCCc3cc(NC(=O)c4ccccc4C(F)(F)F)cc1c32 (configuration not stated)	.	3	4	6	.	5	-35	i
O=[N+]([O-])c1ccc(C[n+]2ccccc2)cc1	.	2	2	2	.	-3	-17	i
COC(=O)C1=C(C)NC(C)=C(C(=O)OC)C1c1ccc(-c2cc(Cl)ccc2Cl)o1	-3	.	-6	-3	-6	.	19	i
Cc1cc(C(=O)Nc2nnc(-c3ccccc3)s2)no1	5	.	-4	2	2	-2	.	i
N#CC1=C(N)Oc2n[nH]c(-c3ccccn3)c2C1c1c(F)cccc1Cl (configuration not stated)	12	.	-3	-7	17	.	.	i
C/C(=N\OCC(=O)Nc1cc(C)cc(C)c1)c1ccc2c(c1)OCCO2	-18	6	6	1	-11	-4	-21	i
CCCC(=O)Nc1cccc(-c2nc3ccccc3o2)c1	-11	0	-5	-8	2	-45	.	i
Cc1nn(C)c(C)c1CN(Cc1nc(-c2ccc(F)cc2F)oc1C)C1CC1	-2	0	-1	-9	-6	-10	15	i
COCCCN1C(=O)C(CC(=O)NCCCN(C)C)CC(C(=O)N2CCOCC2)=C1C (configuration not stated)	.	.	0	4	.	4	-60	.
CN(CC(=O)Nc1cccnc1)S(=O)(=O)c1ccc(Br)cc1	-3	7	-3	0	4	-2	13	i
COc1cccc(Nc2nnc(SCC(=O)N3CC(=O)Nc4ccccc43)s2)c1	-9	2	-3	0	-1	.	-13	i
Cc1ccc2[nH]c(CNC(=O)c3ccccc3F)cc2c1	-1	-22	3	3	-4	-16	0	i
COc1ccc(C)cc1NC(=O)c1cc2ccccc2cc1OCC(=O)NCc1ccco1	-3	-1	-2	3	-4	-7	-99	i
Cc1cc(=O)oc2cc(NC(=O)C3CCCC3)ccc12	-12	-4	3	4	5	-14	-23	i
CCNc1nc(-c2cc3ccccc3o2)cs1	10	8	-5	-8	-16	.	-67	i
COc1ccc(-c2noc(-c3ccccc3C(=O)Nc3cccnc3)n2)cc1OC	5	-4	3	0	8	-18	.	i
COc1ccc(CNC(=O)CCCn2nc(C)c([N+](=O)[O-])c2C)cc1OC	4	-7	-2	-1	-2	.	-36	i
COCCCNC(=S)N1CCN(Cc2ccc3c(c2)OCO3)CC1	-8	3	3	6	-7	.	5	i
COCC(=O)N/N=C(\C)CC(=O)Nc1ccccc1C(N)=O	-5	-1	-1	1	-6	-6	.	i
CCOC(=O)c1nnn(-c2ccccc2)c1C	5	-12	3	6	7	-5	-125	i
CCN(CC)S(=O)(=O)c1ccc(C)c(NC(=O)CNc2cccc(S(=O)(=O)N3CCOCC3)c2)c1	.	-8	3	-8	.	19	.	i
CCS(=O)(=O)N1CCN(S(=O)(=O)c2ccccc2[N+](=O)[O-])CC1	-3	1	-1	3	9	.	11	i
CCn1c(SCC(=O)C(C)(C)C)nnc1-c1ccccn1	-9	-16	-1	-1	-6	-17	.	i
Cn1cccc1Cc1nnc(SCC(=O)N2CCc3ccccc32)n1CCc1ccccc1	8	1	-4	-5	-10	-5	13	i
O=C(NCC(F)(F)F)c1csc([C@@H]2O[C@H](CO)[C@H](O)[C@H](O)[C@H]2O)n1	.	.	-1	6	.	-9	4	.
COc1ccc(NS(=O)(=O)c2ccc(O)c(NC(=O)c3ccc(S(=O)(=O)N4CCCCCC4)cc3)c2)cc1	3	.	1	-20	-5	-35	6	i
Cc1nc2cc(NC(=O)NC(C)(C)C)ccc2n1C	-3	-4	5	2	1	-6	-12	i
COc1ccccc1NC(=O)C[n+]1ccccc1	-1	.	-5	0	3	.	-2	i
CCOc1cc(N2CCOCC2)c(OCC)cc1NC(=O)Cc1cccc2ccccc12	17	-14	-4	-5	-6	-7	-119	i
O=C(COC(=O)c1ccc(S(=O)(=O)NCc2ccco2)cc1)NC1CCCCC1	13	-8	1	-1	-2	-19	-41	.
Cc1ccc(C2(O)CN(c3ccccc3C)C3=[N+]2CCS3)cc1 (configuration not stated)	5	3	-6	-2	0	.	-2	i
O=C(CCc1nc(-c2ccc(F)cc2)no1)NCc1ccccc1CN1CCOCC1	.	13	3	1	.	-20	9	.
COc1cc(S(=O)(=O)N2CCCCC2)ccc1NC(=O)c1ccccc1Cl	-8	0	2	1	0	-16	.	i
CCOc1ccc(NC(=O)CSc2nc3ccccc3nc2N2CCOCC2)cc1	-7	-4	3	-2	-2	-18	7	i
O=C(O)CC(NC(=O)Nc1ccccc1)c1ccc(OC2CCCC2)cc1 (configuration not stated)	6	-15	0	1	-3	.	-29	i
Cc1cc(N2CCN(c3ccccc3)CC2)nc(N)n1	-4	2	-1	8	4	0	18	i
COc1cccc(CNS(=O)(=O)c2cn(C)cn2)c1	9	-7	-1	5	-2	.	.	i
Cc1ccc(-n2c(SCC(=O)Nc3ccc4c5c(cccc35)CC4)nc(O)cc2=O)cc1	11	1	2	9	66	.	5	i	eIF4H FP inh retest=27;PABP polyA inh retest=36
COc1cccc(NC(=O)CN(C)C(=O)CSCc2nc3scc(-c4cccs4)c3c(=O)[nH]2)c1	.	-10	-4	-2	.	-16	-2	i
Cc1ccc(S(=O)(=O)Nc2ccc3[nH]ccc3c2)cc1	5	.	-2	-2	-2	-4	-4	i
CCN1C(=O)/C(=C\C(=O)c2cccs2)c2cc(Br)ccc21	-13	-4	-4	-3	-6	.	-15	i
COC(=O)Nc1nnc(Cc2ccc(Cl)cc2)s1	0	0	3	-2	-9	-23	-88	.
CC(=O)c1cccc(NC(=O)CCNC(=O)c2ccccc2Cl)c1	-2	-4	5	2	-11	-13	12	i
Cc1ccc(S(=O)(=O)NC(CC(=O)NCC2CCCO2)c2ccccc2)cc1 (configuration not stated)	-9	-4	0	-1	0	-2	-2	i
COc1ccc(S(=O)(=O)NCc2ccc(C(=O)NCCCN3CC(C)CC(C)C3)cc2)cc1 (configuration not stated)	4	12	-1	0	-8	-19	-2	i
CCN1CCN(c2cc(C)c3cc(NC(=S)N4CCCCC4)ccc3n2)CC1	2	12	2	2	-1	-28	-21	i
Cn1c(SCC(=O)Nc2ccccc2F)nnc1-c1cccs1	-11	2	2	0	-3	.	-13	i
O=C(NCc1ccc(F)cc1)C1CC(=O)N(C2CCCC2)C1 (configuration not stated)	.	-14	0	3	.	1	7	.
CC(OC(=O)C1=COCCO1)C(=O)NC1CCCCC1 (configuration not stated)	.	.	-2	5	.	-13	-5	.
CC1CCCCC1NC(=O)c1ccc(S(=O)(=O)N2CCN(C)CC2)cc1 (configuration not stated)	11	-9	-3	-3	8	-12	5	i
CSC1=NCCN1C(=O)c1cccc(C(F)(F)F)c1	-3	1	1	4	-10	-24	-144	i
CCNC(=O)C(=O)NCCc1ccc(Cl)cc1	2	-20	0	2	-3	-19	-46	i
CN(Cc1ccccc1)S(=O)(=O)c1nnc(NC(=O)c2ccccc2F)s1	.	35	-3	-3	.	-11	-5	i

Screening data deposited in PubChem BioAssay by several laboratories.
